gsp antag – antagonists of gsp mutant (McCune-Albright syndrome); gsp-mutant cells, cAMP HTRF, 30 min; control for the full effect not named in the record; Potency, µM (doses to about 76.9 µM), inactives show at the highest dose activity change, negative = inhibition, usual class: inhibitors; 340,000 compounds, 0.4% hits; AID 624288; active = falling curve of any shape with a large fitted effect; inconclusive = falling curve, mostly with a smaller effect; inactive = flat or rising curve; cell line not stated here;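 also: intracellular cAMP measured with PDE inhibitor Ro 20-1724 present during compound exposure; potency is read from the fitted curve at half-maximal effect; % is scaled to controls: 0 for no effect and ±100 for the full control effect; nearly all actives have a fitted effect of over 65% in size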
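HTRF cAMP read-out (cAMP-d2 plus anti-cAMP antibody-K in lysis buffer, 30 min RT). Before lysis, cells are exposed to compounds with […] for 30 min at 37C in DPBS containing Ca/Mg, BSA and Tween 20.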
CtBP-E1A blk – blocks the CtBP interaction with E1A | AlphaScreen GST-E1A/His-CtBP binding, 1536-well; stronger effect = lower value; control for the full effect not named in the record | activity change, % (concentration not given with the values) | 340,000 compounds, 0.49% hits; in the data active means activity change below about -65%; inconclusive means about -30% to -65%; inactive means above about -30%; also: % is scaled to controls: 0 for no effect and ±100 for the full control effect
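Protein mix (5X: 125 nM each GST-E1A, His-CtBP) was incubated with pinned compound 2 h at 37 deg C in dark, in 50 mM Tris pH 8.0 buffer with 300 mM NaCl. Glutathione donor and nickel acceptor beads followed; AlphaScreen signal read after 1 h.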
D2 ag – human D2 receptor agonism in beta-arrestin assay. DiscoveRx PathHunter D2 beta-arrestin, luminescence, 90 min; 100% = 57 uM dopamine signal. activation, % (test concentration not listed). 360,000 compounds, 0.084% hits. AID 624465. P14416; in the data active = activation above about 40%; inconclusive = about 15% to 40%; inactive = below about 15%; also: compound concentration not given in the record; the text of the record calls up to 30% inactive
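DiscoveRx PathHunter D2 beta-arrestin cells (2,100/well) attached overnight, then compound-stimulated 90 min at 37 C in HBSS/10 mM HEPES/0.1% Tween-20 buffer; beta-galactosidase complementation read by luminescence after 1 h at ambient temperature. Dopamine 57 uM final (EC100) as control.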
gsp ag – gsp mutant agonism | 340,000 compounds, 0.13% hits | gsp mutant cells, cAMP HTRF, 30 min; control for the full effect not named in the record | Potency, µM (highest dose often 76.9 µM), for the others: top-dose activation (cAMP increase), actives largely listed as activators; active = well fitted activation curve with a large enough effect; inconclusive = small, poorly fitted or top-dose-only effect, or another doubt; inactive = no such curve, though single readings can be large or run the other way; cell line not stated here;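 also: phosphodiesterase inhibitor Ro 20-1724 added with compounds to block cAMP breakdown; potency is read from the fitted curve at half-maximal effect; nearly all actives have a fitted effect of over 60% in size; about a fifth of the inactives were tested at one dose only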
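Cells in DMEM/10% FBS with G418 were pretreated with compounds in DMSO plus […] (300 uM stock) for 30 min at 37C. cAMP was measured by HTRF (cAMP-d2 plus anti-cAMP antibody-K) after 30 min at room temperature.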
Six1-Eya2 inh – inhibitors of human Six1/Eya2 interaction | Q15475+O00167 | AlphaScreen GST-Six1/His-Eya2 binding, biochemical; stronger effect = lower value; control for the full effect not named in the record | activity change, % (no concentration beside the values) | 360,000 compounds, 0.56% hits | AID 651725; in the data active = activity change below about -65%; inconclusive = about -30% to -65%; inactive = above about -30%; also: % is scaled to controls: 0 for no effect and ±100 for the full control effect
Target sequence (O00167 whole entry, looked up): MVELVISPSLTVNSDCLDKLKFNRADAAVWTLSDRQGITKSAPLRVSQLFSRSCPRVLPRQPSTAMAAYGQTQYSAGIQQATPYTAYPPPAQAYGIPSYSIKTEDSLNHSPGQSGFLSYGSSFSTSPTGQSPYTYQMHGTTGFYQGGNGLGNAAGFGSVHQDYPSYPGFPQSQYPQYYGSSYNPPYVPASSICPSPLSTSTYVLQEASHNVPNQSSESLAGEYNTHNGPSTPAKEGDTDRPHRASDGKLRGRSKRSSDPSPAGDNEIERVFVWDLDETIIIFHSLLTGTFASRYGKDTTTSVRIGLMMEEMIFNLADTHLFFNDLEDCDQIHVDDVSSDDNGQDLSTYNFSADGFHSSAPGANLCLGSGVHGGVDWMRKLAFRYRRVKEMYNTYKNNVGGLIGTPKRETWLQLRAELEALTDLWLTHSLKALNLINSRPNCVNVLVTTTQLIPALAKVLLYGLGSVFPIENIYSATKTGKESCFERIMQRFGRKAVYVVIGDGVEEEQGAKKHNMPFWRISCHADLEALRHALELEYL
Target sequence (Q15475 whole entry, looked up): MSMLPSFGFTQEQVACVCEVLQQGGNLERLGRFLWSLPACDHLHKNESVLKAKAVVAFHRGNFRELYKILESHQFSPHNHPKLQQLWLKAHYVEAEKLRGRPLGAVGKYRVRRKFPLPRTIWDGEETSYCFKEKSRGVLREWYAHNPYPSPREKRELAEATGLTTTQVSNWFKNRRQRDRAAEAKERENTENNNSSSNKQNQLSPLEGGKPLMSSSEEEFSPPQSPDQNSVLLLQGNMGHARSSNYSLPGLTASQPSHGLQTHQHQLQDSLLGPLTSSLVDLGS
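Homogeneous AlphaScreen proximity assay pairing GST-Six1 with His-tagged Eya2 (added as 5X mix: 250 nM and 500 nM) in 50 mM Tris pH 8.0, 300 mM NaCl, 1 mM TCEP. Glutathione donor and nickel acceptor beads; 1 h, 37 °C, dark.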
D2 potentiator – positive allosteric modulators of human D2 dopamine receptor | P14416 | DiscoveRx D2 beta-arrestin cells, luminescence, 90 min; 100% = 57 uM dopamine signal | potentiation, % (no concentration beside the values) | 360,000 compounds, 0.23% hits | AID 624464; active = potentiation of 50% or more; inconclusive = 30% to 50%; inactive = 30% or less;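 also: compound concentration not given in the record; tested on top of an EC20 dose of dopamine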
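PathHunter beta-arrestin assay in DiscoveRx D2 cells. Compounds were added with an EC20 of dopamine (50 nM final) for 90 min at 37 deg C. Luminescence was read 1 h after detection reagent, with 57 uM dopamine as the EC100 control.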
* = called active by the depositor; u = inconclusive; x = not tested or not shown; [ ] = dose if it differs, or a comment.

Order of values: gsp antag	CtBP-E1A blk	D2 ag	gsp ag	Six1-Eya2 inh	D2 potentiator
- CCCCC(=O)NC(c1ccc(N(C)C)cc1)c1ccc2cccnc2c1O (stereo not drawn)
→ -13%	-91*	5.6	0%	-70*	4
- COc1cc(NS(=O)(=O)c2cccc3nsnc23)c(C(=O)O)cc1OC
→ 1%	-3	-4.7	u	-1	17
- CCCCNS(=O)(=O)c1ccc(S(=O)(=O)N2CCC3(CC2)OCCO3)cc1
→ 7%	6	7.1	-4%	0	-2
- CCCCCCn1c(=O)c(F)cn(Cc2ccc(OC)c([N+](=O)[O-])c2)c1=O
→ 1%	-2	-0.2	16%	-4	-23
- O=C(NNC(=O)c1cccc(-n2cnnn2)c1)c1ccccc1
→ 14%	-11	-1.1	-18%[15.4 µM]	-3	-5
- O=C(Cc1nc2ccccc2[nH]c1=O)c1ccc(Cl)cc1
→ 4%	x	-3.7	-3%	14	-10
- O=C(COc1ccccc1Cl)Nc1nc(-c2cccs2)cs1
→ 0%	-1	-0.6	-6%	-3	-27
- Cc1ccc(S(=O)(=O)N2CC(O)C[C@H]2C(=O)OCC(=O)N2CCN(c3ccc(F)cc3)CC2)cc1C (stereo partly drawn)
→ 1%	-2	8.4	26%	2	-5
- O=C(/C=C/Sc1ccccc1)c1ccc(Cl)cc1
→ 26%	51	-3.0	3%	-11	-21
- CC(C)(C)C1CCC(=NNC(=O)C2COc3ccccc3O2)CC1 (stereo not drawn)
→ 7%	9	-5.5	17%	9	-10
- O=C(Nc1ccc(Br)c(Cl)c1)c1ccco1
→ -17%	0	1.0	9%	3	-34
- COc1cccc(CN(C)C(=O)c2cccc(S(=O)(=O)NCc3ccccc3)c2)c1OC
→ -3%	0	1.1	0%[15.4 µM]	5	-22
- C[C@@H]1CN([C@H](C)CO)C(=O)CCCn2cc(nn2)CO[C@H]1CN(C)S(=O)(=O)c1ccccc1C#N
→ x	0	-3.0	-38%[inhibitor]	1	-6
- O=C(O)CCCCCNC(=O)CSc1nnc(-c2ccco2)n1-c1ccccc1
→ 2%	11	-0.4	-7%[15.4 µM]	-9	-3
- COc1ccc(/C=C2/SC(=O)N(CCNC(=O)C3COc4ccccc4O3)C2=O)cc1 (stereo not drawn)
→ u	7	-1.5	-11%	-3	-1
- Cc1ccc(C)c(CN2CCC(n3nccc3NC(=O)C3CCCC3)CC2)c1
→ -20%	1	-6.1	-19%	-1	-12
- O=S(=O)(c1ccc(F)c(F)c1)N1CCN(c2ccccn2)CC1
→ 7%	x	2.7	-6%	15	-2
- CC(C)c1ccccc1NC(=O)C1CCCN(C(=O)c2ccc(Cl)cc2)C1 (stereo not drawn)
→ -10%	-3	-3.1	-23%	-1	-1
- COC(=O)C1C(=O)C2=C(CC1C)NC(C)=C(C(=O)OC(C)C)C2c1ccc(C)o1 (stereo not drawn)
→ -4%	-3	0.0	8%	-4	-2
- Cc1ccc(CNC(=O)CCSCc2ccccc2F)cc1
→ -10%	4	5.4	u	1	2
- O=C(O)/C=C/C(=O)Nc1ccc2c(c1)C(=O)c1ccccc1C2=O
→ 7%	-23	-1.6	17%	-67*	-4
- O=C(Cn1nc(-c2ccc(Cl)cc2)c2ccccc2c1=O)NN1CCOCC1
→ -4%	-5	-7.3	-1%[15.4 µM]	18	-3
- C=CCn1c(SCC(=O)N2CCOCC2)nc2c([nH]c3ccccc32)c1=O
→ 19%	2	-0.6	-52%[inhibitor]	1	-13
- COc1ccc(/C=C/C(=O)C(C(N)=O)=C2SCCS2)cc1
→ 3%	6	-3.0	5%	0	-12
- COc1ccc(CC(=O)Nc2nncs2)cc1OC
→ 7%	0	0.8	2%	-10	11
- O=C(c1ccc(Cl)s1)N1CCN(C23CC4CC(CC(C4)C2)C3)CC1
→ 6%	-6	-3.7	-8%	7	25
- COc1ccc(N(CC(=O)O)S(=O)(=O)c2cccnc2)cc1
→ -5%	7	-3.2	9%	3	7
- O=C(Nc1ccc(F)c(Cl)c1)C1CC2CCC1C2 (stereo not drawn)
→ -7%	13	1.7	-3%	0	-6
- CCc1nc2c(OCCC3CCCCC3)cccn2c1N(C=O)Cc1ccccc1
→ x	-6	-2.9	x	-15	-9
- O=C(NCc1cccnc1)c1ccc(-c2ccc(F)c(F)c2)c2ccoc12
→ x	-15	5.5	x	-16	-11
- CC(NC(=O)Nc1cccc([N+](=O)[O-])c1)(C(F)(F)F)C(F)(F)F
→ -17%	0	-4.3	17%	-8	-34
- COc1ccc(NC(=O)CSc2nccn2C)cc1S(N)(=O)=O
→ -42%	21	0.0	17%[15.4 µM]	6	-1
- CCn1nccc1NC(=O)c1csc([C@@H]2O[C@H](CO)[C@H](O)[C@H](O)[C@H]2O)n1
→ x	5	-6.1	x	2	-7
- Clc1ccc(Cn2nnc3ccccc32)cc1
→ -5%	0	-2.8	0%[15.4 µM]	46	-4
- CC(C)(C)c1ccc(OC(=O)c2ccc3nsnc3c2)cc1
→ 0%	-2	1.2	-7%	-3	-5
- CCN(CC)S(=O)(=O)c1cccc(NC(=O)c2cc3ccccc3o2)c1
→ u	-8	-2.3	1%	-1	-37
- N#C/C(C(N)=O)=C1/CCc2ccccc2N1
→ 8%	12	-1.8	17%	-5	-8
- COc1ccc2c(c1OC)C(=O)N(c1ccc(C)c(C)c1)C2=O
→ 20%	7	-4.4	1%	6	11
- FC(F)(F)c1cccc(Sc2nc(-c3ccccc3)nnc2C(F)(F)F)c1
→ 9%	14	-2.5	-17%	10	-8
- Cc1ccc2c(c1)C1CN(C)CCC1N2C(=O)c1cccc(S(=O)(=O)N(C)C)c1 (stereo not drawn)
→ 7%	0	-4.3	-6%[15.4 µM]	8	-10
- CN(C)c1ccc(N2C(=NC(=O)COc3ccccc3)SC3CS(=O)(=O)CC32)cc1 (stereo not drawn)
→ -3%	-25	-2.1	11%	-2	-6
- COCCOc1cc(NC(=O)c2sccc2Oc2ccc([N+](=O)[O-])cc2F)c(Cl)cc1Cl
→ 8%[15.4 µM]	-19	-1.7	6%	u	2
- COc1cc2oc3ccc(C#Cc4ccc(N)cc4)cc3c(=O)c2cc1OC
→ -7%	-5	-0.4	x	7	-1
- CCC(CC)C(=O)c1c[nH]c(C(=O)N2CCN(c3ccc(OC)cc3)CC2)c1
→ 3%	-9	-1.6	4%[15.4 µM]	-10	4
- CCOC(=O)c1csc(NC(=O)CCSc2ccccc2)n1
→ -13%	x	-0.8	-13%	11	4
- COc1ccc(S(=O)(=O)N(C)C[C@H]2Oc3ncc(Br)cc3C(=O)N([C@@H](C)CO)C[C@@H]2C)cc1
→ x	3	-8.3	-72%[inhibitor]	14	-7
- CCOc1ccc(C2C(C#N)=C(N)Oc3cc(O)ccc32)cc1OCC (stereo not drawn)
→ -14%	-2	0.2	-24%	-1	-5
- CCOc1cc(/C=C2\SC(=S)N(NS(=O)(=O)c3ccccc3)C2=O)ccc1O
→ 25µM*	x	-10.0	-49%[inhibitor]	-15	-4
- O=S(=O)(CCN1CCCCC1)CCS(=O)(=O)CCN1CCCCC1
→ 7%	17	-2.9	3%	16	-3
- COc1ccc(OCC(O)Cn2c(=N)n(Cc3ccccc3)c3ccccc32)cc1 (stereo not drawn)
→ 8%	u	-3.5	-65%[inhibitor]	u	20
- Cc1cc(-c2cccnc2)c(C#N)c(SCc2cccc(F)c2)n1
→ 18%	9	-1.2	12%	4	-9
- CCc1c(C)sc(NC(=O)C2CC(c3c(F)cccc3Cl)=NO2)c1C#N (stereo not drawn)
→ 3%	-2	-4.9	u	-2	0
- CCn1c(SCC(=O)Nc2ccc(C(C)=O)cc2)nnc1C1CC1
→ 6%	-2	2.3	-22%[15.4 µM]	2	-3
- CCN(C(=O)CSc1nnc(-c2ccccc2)o1)c1c(N)n(Cc2ccccc2)c(=O)[nH]c1=O
→ 21%	-3	1.0	-10%[15.4 µM]	3	4
- Cc1ccc(C(C)NC(=O)c2ccco2)cc1C (stereo not drawn)
→ 7%	12	0.4	2%	-2	0
- COC(=O)c1cc(NC(=O)c2c(-c3c(Cl)cccc3Cl)noc2C)ccc1N1CCOCC1
→ 0%	x	-3.5	2%	2	-14

Some of the entries above in another layout:
structure,gsp antag,CtBP-E1A blk,D2 ag,gsp ag,Six1-Eya2 inh,D2 potentiator
CCCCC(=O)NC(c1ccc(N(C)C)cc1)c1ccc2cccnc2c1O (stereo not drawn),-13%,-91*,5.6,0%,-70*,4
COc1cc(NS(=O)(=O)c2cccc3nsnc23)c(C(=O)O)cc1OC,1%,-3,-4.7,u,-1,17
CCCCNS(=O)(=O)c1ccc(S(=O)(=O)N2CCC3(CC2)OCCO3)cc1,7%,6,7.1,-4%,0,-2
CCCCCCn1c(=O)c(F)cn(Cc2ccc(OC)c([N+](=O)[O-])c2)c1=O,1%,-2,-0.2,16%,-4,-23
O=C(NNC(=O)c1cccc(-n2cnnn2)c1)c1ccccc1,14%,-11,-1.1,-18%[15.4 µM],-3,-5
O=C(Cc1nc2ccccc2[nH]c1=O)c1ccc(Cl)cc1,4%,x,-3.7,-3%,14,-10
O=C(COc1ccccc1Cl)Nc1nc(-c2cccs2)cs1,0%,-1,-0.6,-6%,-3,-27
Cc1ccc(S(=O)(=O)N2CC(O)C[C@H]2C(=O)OCC(=O)N2CCN(c3ccc(F)cc3)CC2)cc1C (stereo partly drawn),1%,-2,8.4,26%,2,-5
O=C(/C=C/Sc1ccccc1)c1ccc(Cl)cc1,26%,51,-3.0,3%,-11,-21
CC(C)(C)C1CCC(=NNC(=O)C2COc3ccccc3O2)CC1 (stereo not drawn),7%,9,-5.5,17%,9,-10

High-throughput results (PubChem)

Compounds were not picked by outcome; about 1.4% have a hit in one of these screens.
